Screening data: PubChem, National Center for Advancing Translational Sciences (NCATS)
CtBP-E1A blk = qHTS Assay for Inhibitors of the CtBP/E1A Interaction | CtBP / adenovirus E1A interaction (AlphaScreen) | AlphaScreen GST-E1A/His-CtBP binding, 1536-well; stronger effect = lower value; control for the full effect not named in the record | activity change, % (no concentration beside the values) | hit rate 0.49% among 340,000; in the data active means activity change below about -65%; inconclusive means about -30% to -65%; inactive means above about -30%; note: % is set by controls: 0 for no effect and ±100 for the full control effect; compound concentration not given in the record
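In 5 uL wells, 23 nL compound meets equimolar GST-E1A and His-CtBP (5X stock 125 nM each) for 2 h, 37 °C. Beads (5X, 50 ug/mL) then 1 h, 37 °C, dark.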
Six1-Eya2 inh = qHTS Assay for Inhibitors of the Six1/Eya2 Interaction | Homeobox protein SIX1 (Homo sapiens) + Protein phosphatase EYA2 (Homo sapiens), … | AID 651725, 2012 | AlphaScreen GST-Six1/His-Eya2 binding, biochemical; stronger effect = lower value; control for the full effect not named in the record | activity change, % (test concentration not listed) | hit rate 0.56% among 360,000; in the data active = activity change below about -65%; inconclusive = about -30% to -65%; inactive = above about -30%; note: % is set by controls: 0 for no effect and ±100 for the full control effect; compound concentration not given in the record
Target sequence (O00167 whole entry, looked up): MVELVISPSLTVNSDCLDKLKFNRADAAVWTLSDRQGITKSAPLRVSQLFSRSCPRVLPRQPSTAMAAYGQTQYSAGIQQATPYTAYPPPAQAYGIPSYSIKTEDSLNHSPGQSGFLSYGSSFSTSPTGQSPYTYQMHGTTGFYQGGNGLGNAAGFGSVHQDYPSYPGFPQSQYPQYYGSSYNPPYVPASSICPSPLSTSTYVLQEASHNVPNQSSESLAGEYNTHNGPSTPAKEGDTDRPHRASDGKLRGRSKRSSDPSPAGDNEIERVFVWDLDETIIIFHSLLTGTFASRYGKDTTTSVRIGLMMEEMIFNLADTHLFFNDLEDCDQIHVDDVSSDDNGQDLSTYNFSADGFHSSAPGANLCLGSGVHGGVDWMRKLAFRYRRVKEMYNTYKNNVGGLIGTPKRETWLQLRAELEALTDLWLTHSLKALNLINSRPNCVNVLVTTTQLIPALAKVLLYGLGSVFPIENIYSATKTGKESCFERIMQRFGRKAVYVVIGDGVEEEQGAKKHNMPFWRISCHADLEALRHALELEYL
Target sequence (Q15475 whole entry, looked up): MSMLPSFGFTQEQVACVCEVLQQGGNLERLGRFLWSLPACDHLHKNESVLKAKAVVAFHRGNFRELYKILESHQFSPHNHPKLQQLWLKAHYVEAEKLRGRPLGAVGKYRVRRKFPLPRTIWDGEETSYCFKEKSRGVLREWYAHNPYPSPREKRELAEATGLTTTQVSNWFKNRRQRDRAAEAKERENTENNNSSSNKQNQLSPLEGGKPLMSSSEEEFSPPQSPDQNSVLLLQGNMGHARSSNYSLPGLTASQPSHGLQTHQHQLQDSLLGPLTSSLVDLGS
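Compounds are tested against tagged Six1 and Eya2 proteins bridged by glutathione donor and nickel acceptor beads; after a one-hour incubation at 37 °C without light, AlphaScreen emission is recorded.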
D2 ag = Beta-Arrestin HTS for Positive Allosteric Modulators of the Human D2 Dopamine Receptor: Agonists; D(2) dopamine receptor (Homo sapiens), P14416; DiscoveRx PathHunter D2 beta-arrestin, luminescence, 90 min; 100% = 57 uM dopamine signal; activation, % (test concentration not listed); hit rate 0.084% among 360,000; AID 624465, 2012; in the data active = activation above about 40%; inconclusive = about 15% to 40%; inactive = below about 15%; note: compound concentration not given in the record; the text of the record calls up to 30% inactive
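DiscoveRx PathHunter D2 beta-arrestin cells (2,100/well) attached overnight, then compound-stimulated 90 min at 37 C in HBSS/10 mM HEPES/0.1% Tween-20 buffer; beta-galactosidase complementation read by luminescence after 1 h at ambient temperature. Dopamine 57 uM final (EC100) as control.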
TRPML1 ag = qHTS for Agonists of the Human Mucolipin Transient Receptor Potential 1 (TRPML1); activation, % (concentration not given with the values); AID 624414, 2012; hit rate 0.12% among 410,000; TRPML1-expressing cells, Ca2+ dye fluorescence, FDSS; host cell line not named in the record; reference of the full effect not given here; in the data active = activation above about 50%; inconclusive = about 30% to 50%; inactive = below about 30%; note: 0% is about no effect; the text of the record puts the active cut at 80%
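Kinetic FDSS Ca2+ read in Tet-induced TRPML1-DL cells (ABD Ca8 dye plus quencher, 45-90 min RT loading): baseline, then compound, then 110 s agonist window; EC80 agonist 54-4 at 4uM final added afterwards for a 110 s antagonist window.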
PINK1 expr mod = A Quantitative High throughput Screen to Identify Chemical Modulators of PINK1 Expression | PINK1 immunofluorescence, high-content cytometry, 24 h | AID 624263, 2012 | Potency, µM (series often up to 76.6 µM), without a hit: at the top dose activation (PINK1 increase), actives largely listed as activators | hit rate 0.2% among 410,000; active = well fitted activation curve with a large enough effect; inconclusive = small, poorly fitted or top-dose-only effect; inactive = flat fitted curve, though single readings scatter; cell line not stated here;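 note: potency is the fitted concentration of half-maximal effect; % of control where 0% means no effect; nearly all actives have a fitted effect of over 65% in size; a mitochondrial uncoupler was the plate control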
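PINK1 protein level read as immunofluorescence by microplate cytometer in a fixed, stained stable cell line after 24 h exposure to five compound concentrations, with CCCP as control.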
TRPML1 inh = qHTS for Inhibitors of the Human Mucolipin Transient Receptor Potential 1 (TRPML1); TRPML1-inducible cells, Ca2+ dye fluorescence, FDSS; stronger effect = lower value; inhibition of EC80 agonist-evoked calcium signal; Mucolipin-1 (Homo sapiens), Q9GZU1; activity change, negative = inhibition, % (concentration not given with the values); hit rate 0.02% among 390,000; in the data active means activity change below about -50%; inconclusive means about -30% to -50%; inactive means above about -30%;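 note: stimulus is agonist 54-4 at its EC80 concentration; % is set by controls: 0 for no effect and ±100 for the full control effect; compound concentration not given in the record; the text of the record puts the active cut at -80%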
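Calcium fluorescence in TRPML1-DL cells induced overnight with Tet: a 110 s read after compound pin addition, then a 110 s antagonist read after challenge with 54-4 at 4 uM final (EC80).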
An asterisk follows results filed as active; ? = inconclusive; nt = no result given; & = joins results of further samples; [ ] = remark or other dose.

canonical_smiles	CtBP-E1A blk	Six1-Eya2 inh	D2 ag	TRPML1 ag	PINK1 expr mod	TRPML1 inh
CC(NC(=O)Cc1ccccc1)C1COc2ccccc2O1 (stereo not drawn)	4	0	-1.8	-1.0	1.4%	1
Cc1cc(C)c(S(=O)(=O)N2CCCCC2CCNC(=O)C(=O)NCc2cccnc2)c(C)c1 (stereo not drawn)	16	-1	-1.4	-0.6	3.7%	3
COC(=O)Nc1ccc(S(=O)(=O)N2CCCC(C(=O)N3CC(C)OC(C)C3)C2)cc1 (stereo not drawn)	3	2	-2.3	-0.4	2.0%	-6
CCOc1cc(C#N)c(NC(=O)c2ccc(OC)c(S(=O)(=O)N3CCCCC3)c2)cc1OCC	nt	nt	nt	2.4	0.5%	44
COC(=O)c1cccc(NC(=S)N2CCCCC2)c1	9	8	-2.5	-0.4	-0.5%	-7
O=C(O)CCN1C(=O)c2ccc(Oc3ccc4c(c3)C(=O)N(CCC(=O)O)C4=O)cc2C1=O	1	0	-0.8	-0.9	-0.8%[38.3 µM]	-9
CN(C)C(=O)c1ccc(-n2nc(C(F)(F)F)c3c2CCCC3)cc1	3	-2	-1.7	-0.7	0.6%	7
O=S(=O)(NCCSc1ccc(Cl)cc1)c1ccc(F)cc1	7	6	-2.3	1.4	7.5%	-14
CCOc1ccc(CCNC(=O)Cc2ccc(S(=O)(=O)N3CCOCC3)s2)cc1OCC	5	-5	2.0	-0.1	2.6%	-4
CCOC(=O)c1[nH]c2ccc(Br)cc2c1NC(=O)CCN1CCN(C(=O)OCC)CC1	0	-2	-1.8	6.1	1.4%	25
NCCc1nnc(SCc2ccc(F)cc2)o1	5	20	-2.2	-0.5	-0.9%	6
CCC1C(=O)Nc2nc(-c3ccccc3)c(-c3ccccc3)n2N=C1C (stereo not drawn)	-12	-21	-0.9	0.3	-1.2%	6
C=CCNc1nc(-c2ccccn2)nnc1-c1ccccc1	-92*	-92*	-0.4	-0.1	-0.2%	1
COC(C(=O)Nc1ccnn1C1CCN(Cc2ccccn2)CC1)c1ccccc1 (stereo not drawn)	-3	1	-1.7	-0.3	0.1%	-19
CCN(CC(=O)NC1CCS(=O)(=O)C1)C(=O)c1ccc(S(=O)(=O)N(CC)CC)cc1 (stereo not drawn)	nt	9	-3.8	-0.5	1.3%	-9
CC1(C(=O)Nc2ccccc2)CCN1C(=O)C1(c2ccc(Cl)cc2)CC1 (stereo not drawn)	3	1	-4.2	0.8	-1.4%	12
CC(C)c1ccc(-c2nnn(CC(=O)N3CCCCC3)n2)cc1	nt	-14	0.9	nt	3.0%	nt
O=C(CN1N=C(c2ccc(Cl)cc2)CCC1=O)NCc1ccc(F)cc1	nt	nt	nt	0.6	-0.3%	-5
COc1ccc(C(=O)c2cn[nH]c2-c2cc(C)ccc2O)cc1	-11	3	-1.0	-0.8	4.3%	-2
C=C[C@]1(C)C=C2C(=O)[C@@]3(O)OC(=O)[C@@]4(CCCC(C)(C)[C@H]34)[C@@]2(O)CC1	-17	?	11	1.2	8.6%	-10
COc1ccc(C2C(C(=O)c3ccccc3)N3c4ccccc4C=CC3C2[N+](=O)[O-])cc1 (stereo not drawn)	-19	-17	4.2	6.9	11%	-3
Cc1ccc(C)c(N2CCN(C(=O)c3cccn4c(=O)c5sccc5nc34)CC2)c1	4	-6	-1.6	2.6	3.1%	2
CCN1C/C(=C/c2ccc(OC)c(O)c2)C(=O)/C(=C/c2ccc(OC)c(O)c2)C1	nt	6	4.4	2.8	2.6%	-16
COc1cccc(N(C(=O)c2ccco2)C(C(=O)NC2CCCC2)c2cccnc2)c1 (stereo not drawn)	1	5	-1.4	-1.2	1.3%	-2
COc1c(Cl)cc(-c2noc(C)c2C(=O)NCc2ccc3c(c2)OCO3)cc1Cl	4	3	-5.0	1.0	2.6%	2
C[C@@H]1CN([C@H](C)CO)C(=O)c2cc(Br)cnc2O[C@H]1CN(C)C(=O)Cc1ccncc1	-16	9	2.1	-0.5	0.6%	-9
Cc1ccc(C(=O)CCC(=O)Nc2ccccc2F)cc1	13	1	-5.2	-0.3	0.0%	12
COc1cccc(/C=N/n2c(-c3ccco3)nc3ccccc3c2=O)c1	-9	13	-3.5	-0.2	8.3%	5
O=C(COC(=O)C1CCN(S(=O)(=O)c2cccs2)CC1)Nc1ccccc1	-2	-2	8.2	1.6	4.3%	32
CC1(C)NC(=O)N(CCC(=O)Nc2ccc(C(C)(C)C)cc2)C1=O	0	5	-3.8	0.0	0.7%	0
Cc1cc(C#N)c2ccccc2n1	7	29	-2.6	-0.3	0.7%	-8
Cc1cc(NC(=O)NCc2ccc3c(c2)CCN3C(=O)c2ccccc2)ccc1Br	nt	nt	nt	1.0	0.4%	14
O=C(NCCCN1CCOCC1)c1cccc(S(=O)(=O)N2CCc3ccccc3C2)c1	-6	6	-4.7	-0.2	-0.1%	-3
CCN(CC)C(=O)COC(=O)c1ccc(C)c(NC(=O)c2ccco2)c1	2	5	0.9	-0.9	0.9%	2
CC(C)(C)N(Cc1ccccc1)C(=O)COC(=O)[C@@H]1CCCN1C(=O)c1cccs1	-22	7	-0.9	-0.1	-2.5%	5
CCc1ccc(NC(=O)c2n[nH]c(=O)c3ccccc23)cc1	0	-1	0.3	0.2	2.6%	-17
CCOc1ccccc1NC(=O)Cn1c(=O)n(-c2ccc(F)cc2)c(=O)c2c3c(sc21)CN(C(C)=O)CC3	nt	nt	nt	-1.1	0.4%	-9
Cc1ccc(-c2nn(CCC(N)=O)c(=O)c3ccccc23)cc1	0	3	7.1	1.2&-1.3	4.5%&0.6%	9&-3
CCNC(=O)CN(Cc1ccccc1)S(=O)(=O)c1ccccc1	2	4	2.9	0.5	nt	-10
CN(C)S(=O)(=O)c1ccc(C(=O)NCC2CC2(Cl)Cl)cc1 (stereo not drawn)	6	8	-4.8	-1.2	-1.6%	11
COc1cccc(-c2c(C(=O)N/N=C/c3ccco3)nnn2-c2nonc2N)c1	?	-9	1.0	0.3	-0.3%	29
O=C(O)c1ccc([N+](=O)[O-])c2c1C(=O)c1ccccc1C2=O	-19	-19	?	1.1	0.6%	9
Cc1cc(C)c(C)c(S(=O)(=O)N2CCN(C(=O)c3ccncc3)CC2)c1C	3	2	8.7	-0.4	0.8%	21
Cc1ccc(NC(=O)CN(C)C(=O)c2cccc(S(=O)(=O)NCc3ccccc3)c2)cc1	-4	1	-3.5	-1.1	4.7%	-1
O=S(=O)(NC1CC1)c1ccc(S(=O)(=O)N2CCCC3(CCCCC3)C2)cc1	9	6	0.2	-0.1	21%[38.3 µM]	21
CCNC(=S)N(CCN(CC)CC)Cc1cc2cc3c(cc2[nH]c1=O)OCO3	-7	0	-5.7	0.1	2.6%	-9
Cc1ccc(C(C)C)c(OCC(=O)Nc2nc3c(s2)CCCC3)c1	nt	nt	nt	0.4	3.7%	3
CCN(CCCNC(=O)C1CCN(S(=O)(=O)c2cnc[nH]2)CC1)c1cccc(C)c1	-6	-5	-1.3	-0.8	1.1%	-3

5 entries from above, with two lines to a compound.
Every second line gives: CtBP-E1A blk	Six1-Eya2 inh	D2 ag	TRPML1 ag	PINK1 expr mod	TRPML1 inh
> O=C(O)c1ccc([N+](=O)[O-])c2c1C(=O)c1ccccc1C2=O
    -19	-19	?	1.1	0.6%	9
> Cc1cc(C)c(C)c(S(=O)(=O)N2CCN(C(=O)c3ccncc3)CC2)c1C
    3	2	8.7	-0.4	0.8%	21
> Cc1ccc(NC(=O)CN(C)C(=O)c2cccc(S(=O)(=O)NCc3ccccc3)c2)cc1
    -4	1	-3.5	-1.1	4.7%	-1
> O=S(=O)(NC1CC1)c1ccc(S(=O)(=O)N2CCCC3(CCCCC3)C2)cc1
    9	6	0.2	-0.1	21%[38.3 µM]	21
> CCNC(=S)N(CCN(CC)CC)Cc1cc2cc3c(cc2[nH]c1=O)OCO3
    -7	0	-5.7	0.1	2.6%	-9

Next records
canonical_smiles	CtBP-E1A blk	Six1-Eya2 inh	D2 ag	TRPML1 ag	PINK1 expr mod	TRPML1 inh
CCOC(=O)N1CCN(C(=O)c2ccc3c(c2)N(C)C(=O)/C(=C\c2ccc(OCC)c(OC)c2)S3)CC1	-11	-7	10	2.1	24%	37
COc1ccc(Cl)cc1NC(=O)CN(C)C(=O)c1ccc(C)s1	3	7	-0.3	-0.7	1.0%	0
CC(=O)c1cccc(NS(=O)(=O)c2cccc(S(=O)(=O)c3ccc(Br)cc3)c2)c1	nt	nt	nt	-1.2	-0.6%	19
O=C(COC(=O)Cc1c(Cl)cccc1Cl)Nc1ccccc1-c1ccccc1	4	12	0.3	4.8	5.6%	-8
Nc1[nH]c(C(=O)c2ccccc2)c(-c2ccc(F)cc2)c1C(=O)NCCc1c[nH]c2ccccc12	-4	-12	nt	-0.7	5.0%	nt
COc1ccccc1-n1cnc(N)c1C(=O)c1ccccc1	1	-3	-4.2	-0.9	5.4%	-1
CCn1c(SCC(=O)N2CCN(c3ccc(Cl)cc3)CC2)nc2ccccc2c1=O	4&3	8&-12	-1.4	1.8&-1.0	0.8%&0.1%	4&5
CN(C(=O)c1cccc(NC(=O)Cc2cccc(NC(=O)C3CCCN(C(=O)c4ccccc4)C3)c2)c1)C1CC1 (stereo not drawn)	9	12	1.2	3.6	0.2%	9
COc1ccccc1Oc1ccc(S(=O)(=O)N2CCCC2)cc1	5	4	-0.4	1.2	-3.1%[38.3 µM]	-5
COc1ccc2c(c1)OC[C@H]1[C@H]2N2C(=O)CN(Cc3ccco3)C(=O)[C@@]2(C)[C@H]1c1ccccc1	-12	-27	-0.5	0.0	1.2%	-3
COc1ccc(-c2cc(C)no2)cc1S(=O)(=O)NCc1cccs1	nt	nt	nt	0.9	5.6%	7
Cc1c(NC(=O)COC(=O)c2ccc(S(=O)(=O)N3CCOCC3)cc2)c(=O)n(-c2ccccc2)n1C	8	5	-2.4	1.2	1.4%	11
CCOC(=O)C1=C(COC(=O)CNC(=O)c2cccc(C)c2)NC(=O)NC1C (stereo not drawn)	4	-1	-9.2	-1.0	1.5%	22
CCCCn1c(N)c(N(CCOC)C(=O)COC(=O)/C=C/c2ccc(Br)cc2)c(=O)[nH]c1=O	-6	0	-4.1	-0.4	16%	8
